Assay outcomes deposited in PubChem by National Center for Advancing Translational Sciences (NCATS).
Vaccinia mCherry: inhibitors of vaccinia virus infection (mCherry reporter signal) | Vaccinia virus mCherry reporter infection, fluorescence; about a quarter of the inactives have no number | Potency, µM (doses to about 36.5 µM), for the others: at the highest dose activity change, negative = inhibition, most hits filed as inhibitors | 0.63% of 310,000 active; active = well fitted inhibition curve with a large enough effect; inconclusive = small, poorly fitted or top-dose-only effect; inactive = no such curve, though single readings can be large or run the other way; tested in A549 cells; further: nearly all actives have a fitted effect of over 35% in size; inactives centre near -10
VACV Venus inh: inhibitors of vaccinia virus (Venus reporter); Potency, µM (doses to about 36.5 µM), without a hit: at the top dose activity change, negative = inhibition, most hits filed as inhibitors; 0.46% of 330,000 active; Vaccinia virus Venus reporter expression, fluorescence; active means well fitted inhibition curve with a large enough effect; inconclusive means small, poorly fitted or top-dose-only effect; inactive means no such curve, though single readings can be large or run the other way; tested in A549 cells; further: nearly all actives have a fitted effect of over 30% in size; inactives centre near -10
The depositor's hits bear a star; i = inactive; ? = inconclusive; / = not tested or not shown; & = joins results of further samples; [ ] = another dose, or the depositor's remark. On the % scale 0 is the no-effect control and ±100 the full control effect; potency means the concentration at half of the fitted maximal effect.

SMILES	Vaccinia mCherry	VACV Venus inh
COc1ccc(S(=O)(=O)N2CCCCC2)cc1NC(=O)c1cccc(S(=O)(=O)N2CCOCC2)c1	-9%	-2%
Cn1c2c(c(=O)n(C)c1=O)C(CC(=O)Nc1ccc(F)cc1)C(=O)N2 (stereo not drawn)	2%	-3%
COC(=O)[C@]12CCCCC=C1N(Cc1ccco1)C(=O)[C@H](CC(=O)NCc1ccc(C)o1)C2	10%	4%
CCc1c(C)nc(SCC(=O)N2CC(C)OC(C)C2)[nH]c1=O (stereo not drawn)	-8%	-9%
O=C1C(=C(c2ccccc2)c2ccccc2)Nc2ccccc21	/	6%
C/C(O)=c1/ccc2cccc3nc(C)nc1c23	9%	6%
O=C(CSc1n[nH]c(-c2ccco2)n1)Nc1ccccc1Cl	-8%	-21%
CCOC(=O)C1=C(c2ccccc2)OC(N)=C(C#N)C1C(C)C (stereo not drawn)	/	-15%
Cc1cc(C)c(OCCCCCNCCO)c(C)c1	i	-10%
O=C(COc1ccc(Cl)cc1)N1CCN(c2ccc([N+](=O)[O-])c(N3CCOCC3)c2)CC1	10%	-14%
C#CCOCCOCCOCCNc1nc(N2CCN(C(=O)[C@H]([C@@H](C)CC)n3cc(CCCN=C(N)N)nn3)CC2)nc(N2CCN(C(=O)[C@H](CCCCN)n3cc(CCCC)nn3)CC2)n1	i	-14%
COc1ccc(-c2nc3sc(CCNS(=O)(=O)c4ccc(F)c(C)c4)c(C)n3n2)cc1	-27%	-27%

A second format for part of the listing above.
Cn1c2c(c(=O)n(C)c1=O)C(CC(=O)Nc1ccc(F)cc1)C(=O)N2 (stereo not drawn)
  Vaccinia mCherry: 2% | VACV Venus inh: -3%
COC(=O)[C@]12CCCCC=C1N(Cc1ccco1)C(=O)[C@H](CC(=O)NCc1ccc(C)o1)C2
  Vaccinia mCherry: 10% | VACV Venus inh: 4%
CCc1c(C)nc(SCC(=O)N2CC(C)OC(C)C2)[nH]c1=O (stereo not drawn)
  Vaccinia mCherry: -8% | VACV Venus inh: -9%
O=C1C(=C(c2ccccc2)c2ccccc2)Nc2ccccc21
  Vaccinia mCherry: / | VACV Venus inh: 6%

More structures
SMILES	Vaccinia mCherry	VACV Venus inh
COc1ccc(C(CNC(=O)COc2ccc(Br)cc2F)N2CCCC2)cc1 (stereo not drawn)	-4%	2%
O=C(c1ccc(Cl)c([N+](=O)[O-])c1)N(Cc1ccc(F)cc1)C1CCS(=O)(=O)C1 (stereo not drawn)	-12%	-9%
CN(c1ccccc1)S(=O)(=O)c1ccc(C(=O)Nc2nnc(-c3ccco3)o2)cc1	?	-23%
O=C(NCCc1cn2ccccc2n1)c1cc(COc2ccc3ncccc3c2)on1	?	-15%
COCC1CCN(Cc2nc(-c3ccc4c(c3)OCO4)no2)C1 (stereo not drawn)	3%	3%
Cn1ccc(C(=O)NC(=S)N2CCSCC2)n1	-12%	-7%
Cc1cccc(Cc2nnc(NC(=O)c3cccc(S(=O)(=O)N4CCOCC4)c3)s2)c1	-14%	-6%
CCNC(=O)C1CCCN(Cc2ccc3ccccc3c2Br)CC1 (stereo not drawn)	4%	0%
O=[N+]([O-])c1cc(/C=N/n2c(-c3ccncc3)n[nH]c2=S)ccc1Cl	-12%	0%
CCn1c(CC(=O)Nc2ccc(F)cc2)nnc1SCC(=O)N1CCOCC1	i	1%
CC1(C(=O)NS(=O)(=O)c2cccc(C#N)c2)CCN1C(=O)CCC1CCCC1 (stereo not drawn)	31%[activator]	3%
N#Cc1ccc(NC2=NS(=O)(=O)c3ccccc32)cc1	-9%	-11%
CCOc1ccc(NS(=O)(=O)c2ccc(NC(=O)N3CCCC3)cc2)cc1	-6%	1%
Cc1sc(C2C(C#N)=C(N)N(c3ccc(Cl)cc3)C3=C2C(=O)CCC3)cc1CN1CCOCC1 (stereo not drawn)	-12%	-6%
Cc1cccc(N2CCN(S(C)(=O)=O)CC2)c1C	0%	-6%
C=CCn1c(SCC(=O)c2[nH]c(C)c(C(C)=O)c2C)nnc1-c1ccncc1	/	-10%
Cc1cccc(OCC(=O)NCc2n[nH]c(=O)c3ccccc23)c1	-13%	-2%
O=C(CSc1ccc(-c2ccccc2)nn1)NC1CCCC1	-21%	-11%
CS(=O)(=O)N(CC(O)Cn1c2ccccc2c2ccccc21)c1cccc2ccccc12 (stereo not drawn)	/	?
COc1ccc(C)cc1NC(=O)CSc1nnc(-c2ccc(Br)cc2)o1	-11%	-6%
Nc1nc(SCC(=O)NN(c2ccccc2)c2ccccc2)n[nH]1	?	-17%
Cc1cccc(N(CC(O)CN2CCCC2)S(=O)(=O)c2ccccc2)c1 (stereo not drawn)	-24%	-3%
COC(=O)c1ccc(C)c(NC(=O)CN(c2cc(OC)ccc2OC)S(C)(=O)=O)c1	-25%	-21%
Nc1[nH]c(C(=O)c2ccccc2)c(-c2ccccc2C(F)(F)F)c1C(=O)NCc1cccc2ccccc12	3%	5%

In the list so far, 3 contain a nitro group on carbon:
SMILES	Vaccinia mCherry	VACV Venus inh
O=C(COc1ccc(Cl)cc1)N1CCN(c2ccc([N+](=O)[O-])c(N3CCOCC3)c2)CC1	10%	-14%
O=C(c1ccc(Cl)c([N+](=O)[O-])c1)N(Cc1ccc(F)cc1)C1CCS(=O)(=O)C1 (stereo not drawn)	-12%	-9%
O=[N+]([O-])c1cc(/C=N/n2c(-c3ccncc3)n[nH]c2=S)ccc1Cl	-12%	0%

The list goes on.
SMILES	Vaccinia mCherry	VACV Venus inh
COc1ccc2c(CNCc3ccc(Cl)cc3)c(C(=O)O)n(Cc3ccccc3C)c2c1	-8%[7.34 µM]	-6%[7.34 µM]
Cc1ccc(C=Nc2ccccc2C#N)s1	-8%	-7%
Oc1ccc(-c2nc3ccccn3c2NCc2ccc3c(c2)OCO3)cc1	/	5%
CNC(=O)NC(=O)C(OC(=O)c1cccc(S(=O)(=O)N2CCCCC2)c1)c1ccccc1 (stereo not drawn)	i	-7%
O=S(=O)(c1ccc2nc(N3CCN(c4cccc(Cl)c4)CC3)ccc2c1)N1CCCCC1	-6%	1%
CC(C)NC(=O)c1ccc2c(c1)N(Cc1ccccc1)C(=O)C(C)(C)O2	i	-18%
CCN(CC)c1ccc(NC(=O)c2cc3c(OC)cccc3[nH]2)cc1	-27%	-23%
O=C(c1cccc(N2C(=O)C3C4C=CC(C4)C3C2=O)c1)N1CCCCCC1 (stereo not drawn)	/	-23%
Cc1ccc(NC(=O)CN(Cc2ccccc2)S(=O)(=O)c2ccc3nc(C)sc3c2)c(C)c1	-12%	-17%
COc1ccc(C(=O)/C=C/Sc2nc3ccccc3o2)cc1	i	-12%
CCN1CCN(C(c2ccccc2Cl)c2c(O)cc(C)n(CCOC)c2=O)CC1 (stereo not drawn)	-8%	0%
C#CC[N+](C)(C)CCN1C(=O)C2C(c3ccccc3)C=CC(c3ccccc3)C2C1=O (stereo not drawn)	-7%	-4%
CCc1ccc(-n2nc(C)c3c(C)cc(=O)n(CC(=O)Nc4ccc(C(C)=O)cc4)c32)cc1	?	?
Cc1ccccc1C(=O)OCc1cc(=O)n2nc(C(C)C)sc2n1	-10%[7.34 µM]	-8%[7.34 µM]
Nc1nc(SCc2ccccc2Cl)[nH]c(=O)c1-c1ccccc1	-30%	-20%
COC(=O)C(NC(=O)C(NC(=O)C1CCC(C)CC1)C(C)C)C(C)C (stereo not drawn)	-14%	-6%
Cc1cc(Cn2nc(-c3ccccc3)cc2C(=O)NCc2cccs2)on1	-8%	-12%
O=C(Nc1ccccc1)c1nc[nH]c1C(=O)N1CCN(c2ccccc2)CC1	i	-14%
O=C1C(c2ccc(F)cc2)N(CCc2ccc(Cl)cc2)C(=O)CN1C1CCCCCC1 (stereo not drawn)	-7%	-4%
COc1cc(C(=O)Nc2ccc3nc(SCc4ccc(C)cc4)sc3c2)cc(OC)c1OC	-6%	-26%
CCc1cccc(NC(=O)Cn2c(=O)n(-c3ccccc3C)c(=O)c3c2c2cc(C)ccc2n3C)c1	-8%	-5%
CCn1c(CNC(=O)c2ccccc2)nc2ccccc21	i	-6%
CN(C)S(=O)(=O)c1ccc(NC(=O)C2COc3ccccc3O2)cc1 (stereo not drawn)	-11%	-4%
NC(N)=NCCCCCCCCCCN=C(N)N	-20%	-37%

Nothing new here: entries from further up.
SMILES	Vaccinia mCherry	VACV Venus inh
COc1ccc(S(=O)(=O)N2CCCCC2)cc1NC(=O)c1cccc(S(=O)(=O)N2CCOCC2)c1	-9%	-2%
Cn1c2c(c(=O)n(C)c1=O)C(CC(=O)Nc1ccc(F)cc1)C(=O)N2 (stereo not drawn)	2%	-3%

Next records follow.
SMILES	Vaccinia mCherry	VACV Venus inh
O=S(=O)(NC1c2cccc3cccc(c23)C1N1CCNCC1)c1ccc(Cl)cc1 (stereo not drawn)	-16%	-13%
CC1CC(C)(C)NC(=S)N1CCCC(=O)NCc1ccccc1 (stereo not drawn)	-6%	-16%
CCN1CCN(c2ccc(S(=O)(=O)N3CCCCC3)cc2NC(=O)/C=C/c2ccc(OC(F)F)cc2)CC1	?	?
COCCNC(=O)COC(=O)/C=C/c1c(C)nn(Cc2ccc(Cl)cc2Cl)c1Cl	-9%	?
COc1ccc(C(=O)Nc2cc(S(=O)(=O)N3CCCC3)ccc2Cl)cc1	?	-21%
CC1=C(O)C(=O)C=C2C1=CC=C1[C@]2(C)CC[C@@]2(C)C3C[C@](C)(C(=O)O)CC[C@@]3(C)CC[C@@]12C (stereo partly drawn)	14µM*	11µM*
COc1cc(OC)cc(C2=Cc3ccc(OC)cc3C(CC(C)=O)N2c2ccc(C#CCCO)cc2)c1 (stereo not drawn)	17%	-3%
CN(C(=O)CSc1nc(C2CCCC2)nc2c1c(=O)n(C)c(=O)n2C)c1ccccc1	?	-18%
CCCCNC(=O)C1(C)CCN1C(=O)c1cccc2c1OCCO2 (stereo not drawn)	19%	-19%
N#C/C(=C\c1ccccc1)C(=O)N1CCN(c2ccccc2F)CC1	?	-13%
c1ccc2c(COn3nnc4ccccc43)cccc2c1	-17%	-8%
Cc1ccc(S(=O)(=O)N2CCOCC2)cc1NC(=O)CSc1ccccn1	i	-10%
CSc1cccc(N2C(=O)N(Cc3ccc([N+](=O)[O-])cc3)c3ccccc3S2(=O)=O)c1	-4%	-9%
CC(C)(C)C(=O)/C=c1\[nH]c(=O)/c(=C\c2ccccc2F)s1	-3%	-27%
COc1cc(NC(=O)C23CC4CC(C2)CC(n2cnc([N+](=O)[O-])n2)(C4)C3)cc(OC)c1	-13%	-12%
Cc1ccc(Cn2cc(/C=N/Nc3ccc([N+](=O)[O-])cn3)c3ccccc32)cc1	-26%	-20%
CC1(C(=O)Nc2cccc(Oc3ccccc3)c2)CCN1C1Cc2ccccc2C1 (stereo not drawn)	i	-8%
NCCS	-15%	-11%&-13%
CC(NC(=O)COc1ccccc1F)C1CC2CCC1C2 (stereo not drawn)	i	-5%
CCOC(=O)c1ccc2c(c1)N(Cc1cccc([N+](=O)[O-])c1)C(=O)c1ccccc1S2	-8%	0%
CN(C)/C=C(/C(=O)c1ccc(Cl)cc1)S(C)(=O)=O	-2%	2%
CCOc1cccc(NC(=O)CSc2nncn2N)c1	i	-7%
COC(=O)[C@H](CC(C)C)NC(=O)c1cc2c(cn1)[nH]c1ccccc12	-2%	-30%
CCOc1ccc(NC(=O)CN(C)C(=O)c2cccnc2Sc2ccc(Cl)cc2)cc1OCC	-25%	-18%
CCN(CC)c1ccc(NC(=O)COC(=O)CCc2cc(OC)c(OC)c(OC)c2)cc1	-8%	5%
CC1CC(C)CN(C(=O)COC(=O)c2cc3ccccc3cc2O)C1 (stereo not drawn)	/	-16%
COc1ccc(C(=O)NC2CCCCCC2)cc1S(=O)(=O)N1CCCc2ccccc21	-11%	-10%
Cc1ccc(S(=O)(=O)N/N=C\c2cn(CC(N)=O)c3ccccc23)cc1C	i	-22%
CSc1ccccc1OCc1cc(C(=O)NCc2ccc(C)s2)no1	0%	-13%
CN(C)c1ccc(C=C2C=Cc3ccccc32)cc1	i	-17%
CCC(CC)n1c(C)cc(=O)n1C(CC)CC	i	-1%
CC(C)Oc1cccc(C(=O)C2CCCN(Cc3ccc(Oc4ncccn4)cc3)C2)c1 (stereo not drawn)	-17%	-4%
O=C1/C(=C/c2cccs2)Sc2ccccc21	i	-4%
CC(C)CCNC(=O)CSc1nc2ccsc2c(=O)n1Cc1ccccc1Cl	-8%	-11%
CCOC(=O)c1c(S(=O)(=O)N2CCC(C(=O)Nc3ccccc3OC)CC2)c(C)n(CC)c1C	-6%	-5%
CC1CC(C)CN(C(=O)Cn2c(=O)n(CCCCC(=O)NCc3ccco3)c(=O)c3ccccc32)C1 (stereo not drawn)	/	-21%
COc1cc(CN(C)CC2CCCN(CCc3ccccc3F)C2)cc(Cl)c1OC (stereo not drawn)	-26%	-18%
Cc1ccc(Cn2nnc3c(=O)[nH]c(C4CCCN(S(=O)(=O)c5ccc(F)cc5)C4)nc32)cc1 (stereo not drawn)	i	3%
O=C(Nc1ccc(/C=C/c2nc3ccccc3o2)cc1)c1cccc(C(F)(F)F)c1	/	?
Cn1nc([N+](=O)[O-])nc1Sc1nnc(-c2ccccc2)o1	-27%	-18%
Cc1ccc(/C=N/c2sc(Cc3ccccc3)c(C)c2C(N)=O)o1	-14%	-21%
CCOc1ccc(-c2nnn(CC(=O)NCc3ccc(F)cc3)n2)cc1OCC	-10%	-8%
Cn1nc(-c2ccccc2F)c2cc(C(=O)N3CCN(c4ccc(F)cc4)CC3)sc21	-22%	-15%
OC(c1ccc(F)cc1)c1nc(-c2cccc(C(F)(F)F)c2)cs1 (stereo not drawn)	i	-22%
O=C(NCCO)c1ccc(Oc2ccc(C(F)(F)F)cc2[N+](=O)[O-])cc1	-32%	-9%
CN(C)c1ccc(-c2nnc(SCC3CCCO3)n2C)cc1 (stereo not drawn)	-13%	-13%
